HIV TAR-Tat = HIV-1 TAR-Tat binding disruption | z-score (concentration not given with the values) | HIV-1 TAR RNA, Tat peptide displacement FRET; hits give high values | hit rate 0.6% among 100,000;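 further: score is relative to mean and SD of negative controls; some compounds called inactive have numbers as strong as hits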
CDC25B CDK2 inh = human CDC25B-CDK2/CyclinA binding inhibition; P30305+P24941; HTRF CDC25B-CDK2/CyclinA binding, anti-His/anti-Flag; hits give high values; z-score (concentration not given with the values); hit rate 0.72% among 94,000;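 further: score is relative to mean and SD of negative controls; strong numbers were not always called active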
Starred values were filed as active, the others as inactive; · = not tested or not shown.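 How the source made its calls: active means z-score from 3 up in half or more of its runs; inactive means the rest.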

Order of values – CDC25B CDK2 inh	HIV TAR-Tat
- CN(CCNC(=O)C1CCN(c2nc3ccccc3[nH]2)CC1)C1CCCCC1
→ -2.29	-0.58
- CCN(CC)c1nnnc2c1sc1nc(N3CCOCC3)c3c(c12)CCCC3
→ -0.74	·
- Cn1cc(Cc2nnc(N)s2)c2ccccc21
→ 0.5	0.95
- COc1ccccc1C1NC(=O)c2sc(=S)n(-c3ccccc3)c2N1 (stereo not drawn)
→ 0.38	-0.24
- CNC(=O)Cn1cc2c(n1)CCCCC2
→ -2.46	·
- CCN1C(=O)SC(CC(=O)O)C1=O (stereo not drawn)
→ 0.13	0.32
- Cc1cc(NC(=O)C2=CC(c3ccc4c(c3)OCO4)=NS(=O)(=O)N2C)no1
→ 0.11	3.57
- COc1ccccc1N1CCN(CC(O)c2c[nH]c3ccc(F)cc23)CC1 (stereo not drawn)
→ 1.2	0.6
- Cc1cc(C)n(CC(=O)O)c(=O)n1
→ ·	0.24
- C=CCC(CN)(CC=C)c1ccc(OC)c(OC)c1
→ -2.2	1.52
- O=C1SC(Nc2ccccc2)C(=O)N1c1ccccc1 (stereo not drawn)
→ -0.53	2.24
- CC1CCCN(S(=O)(=O)c2cnc[nH]2)C1 (stereo not drawn)
→ 0.63	0.64
- CCS(=O)(=O)c1nc(NC(C)=O)n[nH]1
→ 1.83	-0.11
- O=S(=O)(Nc1cccc(-c2nnc(-c3ccccc3)o2)c1)c1cccc(Cl)c1
→ ·	-0.44
- C=CCSc1nnc(NC(=O)c2cc(=O)c3cc(CC)ccc3o2)s1
→ -0.88	9.8*
- Cc1cc(C)n(-c2nc3c(c(=O)[nH]c(=O)n3C)n2Cc2ccc(F)cc2)n1
→ -1.87	-0.52
- Cn1c(=O)c(=O)n(C)c2cc(N3CCCC3)c(NS(=O)(=O)c3ccc(C4CCCCC4)cc3)cc21
→ ·	0.52
- O=C(Oc1ccc(-c2cnc3ccccc3n2)cc1)c1ccco1
→ -0.88	1.49
- COc1cc(OC)cc(C(=O)NNC(=S)Nc2cccc(Cl)c2)c1
→ -2.99	·
- Cc1cccc(N(C)c2c(-c3ccc(C(C)C)cc3)c(=O)c2=O)c1
→ ·	2.19
- CCc1ccc(NS(=O)(=O)c2ccc(-c3cc(C)[nH]n3)s2)cc1
→ ·	1.37
- COc1ccc(-n2nc(C(=O)N(C)c3ccccc3)c3c4ccccc4n(C)c3c2=O)cc1
→ -1.33	·
- Cc1cc(-c2ccc(C)c(S(=O)(=O)Nc3cccc(Cl)c3C)c2)on1
→ ·	-0.54
- O=C(O)C1CCCN(S(=O)(=O)N2CCCCC2)C1 (stereo not drawn)
→ 1.55	0.98
- Cc1ccsc1CN(C(=O)c1oc2ccc(Br)cc2c1C)C1CCS(=O)(=O)C1 (stereo not drawn)
→ -0.37	0.33
- CCCCNC(=O)C1=C(C)C(=O)OC12CCN(S(=O)(=O)c1cccs1)CC2
→ ·	1.57
- Cc1cccc(NC(=O)NC(C)c2c(-n3cccc3)sc(C)c2C)c1C (stereo not drawn)
→ -1.8	0.57
- O=C(O)c1cc2cccc(S(=O)(=O)N3CCCCC3)c2cc1O
→ -0.2	1.09
- O=S(=O)(Nc1ccc(F)cc1F)c1ccc(-n2cccn2)cc1
→ ·	-0.09
- C=CCNC(=O)C(=O)Nc1c2c(nn1-c1ccccc1)CS(=O)(=O)C2
→ ·	1.38
- O=C(Cn1c(=O)oc2cc(S(=O)(=O)NC3CCCC3)ccc21)N1CCCC1
→ -0.6	-0.03
- O=C(c1cc2n(n1)C(C(F)(F)F)CC(c1ccccc1)N2)N1CCOCC1 (stereo not drawn)
→ 0.02	9.95
- CCOC(=O)c1cnc2nc(-c3ccco3)[nH]n2c1=O
→ 1.05	1.14
- O=C(NC1CCCC1)c1cc2cccc3c2n1CCS3
→ ·	0.81
- CCc1nn2c(=O)cc(COC(=O)c3ccccc3F)nc2s1
→ ·	0.6
- Cc1ccc(C(=O)OCCSc2ccc(C#N)cc2[N+](=O)[O-])cc1
→ -0.72	·
- CCCN(Cc1cc2cc(C)ccc2[nH]c1=O)S(=O)(=O)c1ccccc1
→ -0.42	1.69
- COc1cccc(C(=O)Oc2ccc(-c3cnc4ccccc4n3)cc2)c1
→ -2.25	0.87
- Cn1cc(-c2cc3n(n2)CCC(=O)N3CCCC(=O)NC2CCCCC2)c2ccccc21
→ ·	0.83
- CC1CN(c2nc(-c3ccc(Cl)cc3)nc3ccccc23)CC(C)O1 (stereo not drawn)
→ 0.96	-0.29
- O=C(CN1C(=O)COc2ccc(S(=O)(=O)N3CCCC3)cc21)NCCCN1CCOCC1
→ -1.14	1.19
- CCN1CCN(CC(=O)c2c(C)[nH]c3ccccc23)CC1
→ -0.97	-1.77
- CCN(CC)c1ncc(Br)cn1
→ -0.87	0.76
- CC1=C(/C=C/C(C)=C/C=C/C(C)=C/C(=O)Nc2ccc(O)cc2)C(C)(C)CCC1
→ -2.13	·
- CCn1c(=S)ccc2cc(OC)ccc21
→ 0.04	1.84
- COc1ccc(Cl)cc1NC(=O)c1cnc2sc(N3CCOCC3)nn2c1=O
→ ·	0.46
- Cc1nnc2c(NCCCN3CCN(c4ccccc4)CC3)nc3ccccc3n12
→ -0.2	1.51
- Cc1ccccc1NC(=S)NCCO
→ -1.44	·
- Cc1ccc2oc(-c3cccs3)nc2c1
→ -0.62	·
- Cc1noc2ncnc(N3CCCCC3C)c12 (stereo not drawn)
→ ·	0.49
- O=C(CC1(O)C(=O)N(Cc2ccc(Cl)cc2)c2ccccc21)c1ccncc1 (stereo not drawn)
→ -1.59	·
- CCN(CC)C(=O)CN1c2ccc(C(C)C)cc2-c2ccccc2S1(=O)=O
→ 0.08	0.25
- O=C1c2oc3ccccc3c(=O)c2C(c2ccc(O)cc2)N1Cc1ccccc1Cl (stereo not drawn)
→ -1.15	0.62
- Cc1cc2c3c([nH]c2cc1S(=O)(=O)N(C)Cc1ccccc1)CC(C)(C)CC3=O
→ ·	-0.34
- CN(C)CCCN1C(=O)C(=O)/C(=C(/O)c2ccc(Cl)cc2)C1c1ccc(F)cc1 (stereo not drawn)
→ -0.82	1.24
- CCCCn1c(C)c(C)c2c1ncn1nc(-c3ccco3)nc21
→ -0.97	0.75
- O=C(Nc1cc(Cl)cc(Cl)c1)c1ccc(Br)o1
→ -9.09	·
- CCCCn1c(C2CC(=O)N(c3ccc(Cl)cc3)C2)nc2ccccc21 (stereo not drawn)
→ -3.42	2.32
- Fc1ccc(-n2cc(-c3ccccc3)c3c(NCC4CCCO4)ncnc32)cc1 (stereo not drawn)
→ -3.29	·
- CN(C)/C=N/c1nnc(SCc2c(F)cccc2Cl)s1
→ -1.88	·

Overlap with the part before: 4 compounds, followed by the next part.
Order of values – CDC25B CDK2 inh	HIV TAR-Tat
- O=C(Nc1cc(Cl)cc(Cl)c1)c1ccc(Br)o1
→ -9.09	·
- CCCCn1c(C2CC(=O)N(c3ccc(Cl)cc3)C2)nc2ccccc21 (stereo not drawn)
→ -3.42	2.32
- Fc1ccc(-n2cc(-c3ccccc3)c3c(NCC4CCCO4)ncnc32)cc1 (stereo not drawn)
→ -3.29	·
- CN(C)/C=N/c1nnc(SCc2c(F)cccc2Cl)s1
→ -1.88	·
- O=C(Cn1nc(-c2ccc3c(c2)OCCO3)ccc1=O)Nc1ccc(F)c(F)c1
→ -0.92	0.02
- COc1ccc(C(=O)CSc2nc3nc(C)cc(C)c3c(=O)[nH]2)cc1OC
→ -1.04	·
- COCCCNC(=O)Cn1ncn2nc(-c3cccs3)cc2c1=O
→ -0.45	-0.52
- CN(C)c1ccc(CN(CC2CCCO2)C(=O)COc2ccc(Br)cc2)cc1 (stereo not drawn)
→ 0.13	1.57
- CCOC(=O)c1[nH]c(C)c(C(=O)N(CC(C)C)CC(C)C)c1C
→ -1.66	·
- Cc1ccc2c(c1)-c1c(sn(-c3cccc4ccccc34)c1=S)C(C)(C)N2
→ -0.31	·
- Cc1nc(Nc2nc3c(c(=O)[nH]2)CCCC3)nc2ccccc12
→ 0.65	·
- CC(=O)N1CCOc2cc(S(=O)(=O)N3CCCCC3C)c(Cl)cc21 (stereo not drawn)
→ ·	1.13
- CC(=O)NCCc1c[nH]c2ccc(O)cc12
→ -1.08	·
- CCOc1cc(C2c3c(oc4ccc(F)cc4c3=O)C(=O)N2c2nnc(CC(C)C)s2)ccc1O (stereo not drawn)
→ -0.47	1.3
- COc1ccccc1-c1nnc2sc(/C=C/c3ccccc3)nn12
→ -1.37	1.12
- COc1c(O)cc(O)cc1O
→ ·	2.16
- O=C(CSc1nc2c(c(=O)[nH]1)CCC2)Nc1ccccc1Cl
→ 0.34	1.3
- Cc1cc(Sc2ccc(N)cc2)n2ncnc2n1
→ -3.35	2.09
- Cc1ccc(-c2nnc3c4ccccc4c(C)nn23)cc1S(=O)(=O)NCCO
→ -0.94	0.43
- Cc1cc(C)nc(SCc2csc(-c3ccccc3)n2)n1
→ 0.92	-1.06
- CCOC(=O)c1c(C)[nH]c(C)c1S(=O)(=O)N1CCN(C(=O)OCC)CC1
→ ·	0.32
- Cc1cc2c(cc1C)N(C(=O)COc1nc3ccccc3s1)C(C)(C)c1ssc(=S)c1-2
→ -3.73	·
- CC(C)NC(=O)Cn1c(-c2cccs2)cc2ccccc21
→ ·	-1.35
- CC(C)(C)NC(=O)CSc1nccn1Cc1ccco1
→ ·	1.55
- Cc1ccc(-c2n[nH]c(=S)n2C)cc1
→ -0.3	·
- O=C(CC1CCCC1)N1CCCC(c2nc3c(nnn3Cc3ccc(F)cc3)c(=O)[nH]2)C1 (stereo not drawn)
→ -0.63	1.76
- O=C(c1nn2c(c1Cl)NC(c1cccs1)CC2C(F)(F)F)N1CCCC1 (stereo not drawn)
→ -0.77	-0.15
- Cc1noc(NS(=O)(=O)c2ccc(NC(=O)C(C)(C)C)cc2)c1C
→ -1.77	1.21
- Cc1cc(C)n(CCc2nc3c4ccccc4n(Cc4ccccc4F)c(=O)n3n2)n1
→ -0.61	·
- COc1ccc(C2=NOC(C(=O)N(C)C3CCCCC3)C2)cc1 (stereo not drawn)
→ -0.72	-1.84
- CN(C(=O)c1noc2c1CCc1sccc1-2)c1cccc(Cl)c1
→ ·	-0.28
- Cc1cc(C)c(NC(=O)CCc2nc(CSc3nc4cc(C)ccc4o3)no2)c(C)c1
→ ·	1.1
- Cc1onc(-c2ccccc2)c1CNS(=O)(=O)c1ccc2c(c1)CCO2
→ -0.81	·
- Cc1onc(-c2ccccc2)c1C(=O)Nc1ccc(/C(C#N)=C/c2ccccn2)cc1
→ 0.15	·

Part of the list above in order of heavy-atom count, ascending.
Order of values – CDC25B CDK2 inh	HIV TAR-Tat
- Cc1ccc2c(c1)-c1c(sn(-c3cccc4ccccc34)c1=S)C(C)(C)N2
→ -0.31	·
- Cc1ccc(-c2nnc3c4ccccc4c(C)nn23)cc1S(=O)(=O)NCCO
→ -0.94	0.43
- Cc1onc(-c2ccccc2)c1C(=O)Nc1ccc(/C(C#N)=C/c2ccccn2)cc1
→ 0.15	·

Further compounds follow:
Order of values – CDC25B CDK2 inh	HIV TAR-Tat
- O=C(CSc1nc2c(c(=O)[nH]1)CCCC2)Nc1ccccc1
→ -1.7	2.19
- CC1Cc2cc(S(=O)(=O)N(C)CC(=O)Nc3ccc(Cl)cc3)ccc2N1C(=O)C1CCC1 (stereo not drawn)
→ ·	1.19
- Cc1cc(Cl)ccc1NS(=O)(=O)c1ccc2c(c1)NC(=O)C(C)CS2 (stereo not drawn)
→ ·	2.03
- CCCc1n(CC(O)COCc2ccccc2)c2ccccc2[n+]1C (stereo not drawn)
→ 0.66	1.73
- CC1CCCN(CCNc2cc(N(C)C)c3noc4c3c2C(=O)c2ccccc2-4)C1 (stereo not drawn)
→ -2.08	9.33*
- Cc1ccc(CNc2nc(-c3ccco3)nn2S(=O)(=O)c2ccc3ccccc3c2)cc1
→ 2.39	-0.52
- CC(C)=CCC/C(C)=C/CC/C(C)=C/CO
→ ·	0.89
- CCN1CCC2(CC1)OC(=O)C(C)=C2C(=O)N1CCN(C(=O)c2ccco2)CC1
→ ·	1.02
- O=C(CN1N=NC2C(=O)N(c3ccc(F)c(F)c3)C(=O)C21)Nc1cccc(F)c1 (stereo not drawn)
→ ·	-0.93
- NC(=O)CSc1nnc(Cn2c(=O)sc3ccccc32)n1-c1ccccc1
→ -1.37	·
- Cc1ccc(CN2CCc3nc(N4CCN(c5ncccn5)CC4)ncc3C2)s1
→ ·	-0.23
- CN(C)c1ccc(CNS(=O)(=O)c2ccc3c(c2)NC(=O)CO3)cc1
→ ·	0.51
- Cc1nn(CC(=O)O)c(=O)c2ccccc12
→ -1.87	-0.8
- O=C(NCc1cccs1)c1cc2n(n1)C(C(F)(F)F)CC(c1ccco1)N2 (stereo not drawn)
→ 0.9	1.16
- COc1cc(NC(=O)CSc2nc(-c3ccco3)nc3cc(=O)[nH]n23)cc(OC)c1
→ ·	0.48
- CCCCSCCCNC(=O)CN1C(=O)CCn2nc(C)cc21
→ ·	0.38
- COc1ccc(S(=O)(=O)NCc2ccncc2)cc1Br
→ -0.48	0.41
- CCOC(=O)c1cc(S(=O)(=O)N2CCN(C)CC2)[nH]n1
→ ·	0.31
- Cc1ccccc1OCCn1c(S(=O)(=O)O)nc2c(N)ncnc21
→ -0.01	·
- CCN(CC)c1ncnc2sccc12
→ -0.7	·
- CC(C)Oc1ccc(N2CC(O)=C(c3nc4ccccc4[nH]3)C2=N)cc1
→ 0.76	2.22
- O=C1CN(S(=O)(=O)c2ccc(CN3C(=O)c4cccnc4C3=O)cc2)c2ccccc2N1
→ ·	1.83
- COc1ccc(-c2noc(CC(c3ccccc3)c3ccccc3)n2)cc1
→ -0.78	·
- CSc1nc(SCC(=O)O)c2c3c(sc2n1)COC(C)(C)C3
→ -0.39	0.72
- COc1ccc(-c2noc(-c3nnn(-c4ccc(OC)cc4)c3C)n2)cc1
→ ·	-3.03
- Cc1ccc2c(=O)cc(C(=O)Nc3sc4c(c3C(=O)NCC3CCCO3)CCCC4)oc2c1 (stereo not drawn)
→ -2.06	1.49
- COc1ccc(Br)c(OC)c1C(=O)O
→ -2.14	·
- O=c1[nH]c(SCc2c(F)cccc2Cl)nc2c1CCC2
→ -1.86	8.61*
